Bioassay records: PubChem BioAssay, National Center for Advancing Translational Sciences (NCATS)
2A firefly – FMDV 2A StopGo reporter, firefly signal; HEK cells with a luciferase reporter of 2A StopGo recoding; Potency, µM (top dose mostly 57.5 µM), for the others: at the highest dose signal change, negative = less light; 120,000 tested, 0.23% active; AID 1745856; active = well fitted falling curve with a large enough effect; inconclusive = small, poorly fitted or top-dose-only effect; inactive = no such curve, though single readings can be large or run the other way; also: nearly all actives have a fitted effect of over 60% in size; overnight with compound
StopGo RLuc – lowers the Renilla signal of an FMDV 2A StopGo reporter | Potency, µM (highest dose often 57.5 µM), for inactives: top-dose signal change, negative = less light | AID 1745857 | HEK cells with a luciferase reporter of 2A StopGo recoding | 120,000 tested, 0.32% active; active means well fitted falling curve with a large enough effect; inconclusive means small, poorly fitted or top-dose-only effect; inactive means no such curve, though single readings can be large or run the other way; also: nearly all actives have a fitted effect of over 55% in size; overnight with compound
Active calls of the source: *; [ ] = remark or other dose. % is scaled to controls: 0 for no effect and ±100 for the full control effect; potency is read from the fitted curve at half-maximal effect. Not a hit list; about 0.55% have a hit in one of these screens.

Screening CC(C)c1ccc(S(=O)(=O)N2CCN(C(=O)c3cn[nH]c3-c3ccccc3)CC2)cc1 returned 2A firefly 16% and StopGo RLuc 18%.
`Cc1ccc(NS(=O)(=O)c2ccc(N/N=C/c3cc(C)ccc3C)c([N+](=O)[O-])c2)c(C)c1` gave 2A firefly 8% and StopGo RLuc 4%.
Cc1cc(-c2[nH]c3ccccc3c2C=O)c(C)s1 was read as 2A firefly 116%[activator] and StopGo RLuc 8%.
CCCn1ccc2c(OCC(=O)Nc3ccccc3C(F)(F)F)cccc2c1=O was read as 2A firefly -17% and StopGo RLuc -10%.
COCCCn1c(SCc2ccccc2F)nc2c(sc3ccccc32)c1=O was read as 2A firefly -9% and StopGo RLuc -8%.
For CCOc1ccc(C(CC(=O)Nc2cc(OC)cc(OC)c2)N2Cc3ccccc3C2=O)cc1OC (stereo not drawn) the results were 2A firefly 11% and StopGo RLuc 284%[activator].
`Cc1ccc(Cl)cc1NC(=O)c1ccc(NC(=O)N2CCSc3ncccc32)cc1` gave 2A firefly 62%[activator] and StopGo RLuc -2%.
`CC(C)c1ccc(NC(=O)C2CC(=O)NC(N3CCN(c4ccccc4)CC3)=N2)cc1` (stereo not drawn) gave 2A firefly 3% and StopGo RLuc -3%.
Screening Clc1ccc(-c2cc3ccccn3c2)cc1 returned 2A firefly 56%[activator] and StopGo RLuc -1%.
`CCN(CCOc1ccc(C#N)cc1)Cc1ccccc1` gave 2A firefly -2% and StopGo RLuc 5%.
Screening CCc1cccc(NC(=O)Nc2cn(C)c(=O)c3ccccc23)c1 returned 2A firefly -5% and StopGo RLuc -9%.
`COc1cccc(N2CCN(C(=O)C3CCCN(S(=O)(=O)c4ccc(Br)s4)C3)CC2)c1` (stereo not drawn) gave 2A firefly inconclusive and StopGo RLuc inconclusive.
O=C(Nc1nnc(S(=O)(=O)N2CCCCC2)s1)c1ccc(F)cc1 was read as 2A firefly 30%[activator] and StopGo RLuc -13%.
Screening COC(=O)c1ccccc1NC(=O)Cn1c(=O)n(CCC(=O)NCc2ccc3c(c2)OCO3)c(=O)c2ccccc21 returned 2A firefly -2% and StopGo RLuc -4%.
For COc1ccc(NC(=O)CSc2nnc(-c3ccc(C)cc3)c(=O)[nH]2)cc1 the results were 2A firefly 15% and StopGo RLuc -1%.
Cc1ccc(COC(=O)c2ccc(C(=O)c3ccccc3)cc2)cc1 was read as 2A firefly 5% and StopGo RLuc 7%.
For COc1ccc2[nH]cc(C(C(=O)O)N3CCN(C(=O)OC(C)(C)C)CC3)c2c1 (stereo not drawn) the results were 2A firefly -3% and StopGo RLuc -5%.
`CCC1CN(C(=O)NCc2ccccc2)c2cc(C)ccc2O1` (stereo not drawn) gave 2A firefly -7% and StopGo RLuc 8%.
`COc1cc(NC(=O)COc2ccc(Cl)cc2Cl)c2ncccc2c1` gave 2A firefly -6% and StopGo RLuc -5%.
For Cc1ccc2c(c1)c(CC(=O)Nc1ccc(C)c(F)c1)c(C(=O)O)n2C the results were 2A firefly -10% and StopGo RLuc -16%.
For Cn1nc(C(=O)NCc2ccco2)c2ccccc2c1=O the results were 2A firefly 63%[activator] and StopGo RLuc 49%[activator].
CCOc1cc(/C=C/C(=O)c2ccc(Cl)cc2)cc(Cl)c1O was read as 2A firefly 17% and StopGo RLuc -2%.
COc1ccc(NC2(c3nnnn3-c3ccc(OC)c(OC)c3)CCCCC2)cc1OC was read as 2A firefly -10% and StopGo RLuc 43%[activator].
For O=C(NCCc1ccc(Cl)cc1)c1ccc2c(c1)N(Cc1ccccc1)C(=O)CS2 the results were 2A firefly -19% and StopGo RLuc -5%.
For Cc1cc(Br)ccc1NC(=O)CCS(=O)(=O)c1cccc2nsnc12 the results were 2A firefly 4% and StopGo RLuc 9%.
Screening c1ccc(-c2nc(-c3ccc(C4CCCCC4)cc3)cs2)cc1 returned 2A firefly 0% and StopGo RLuc 9%.
CN(C)c1ccc(C(=O)NCc2ccc3c(c2)CCN3C(=O)c2ccc(Cl)cc2)cc1 was read as 2A firefly -26% and StopGo RLuc -13%.
`CC(=O)N1CCC2(CC1)OC(=O)C(C)=C2C(=O)Nc1cc(C)ccc1C` gave 2A firefly -18% and StopGo RLuc -3%.
For O=C(Cc1ccccc1)NCCc1csc2nc(-c3ccc(Cl)cc3)nn12 the results were 2A firefly -11% and StopGo RLuc -5%.
Screening O=C(Cc1ccccc1)Nc1c(C(=O)N2CCN(c3ccc(F)cc3)CC2)oc2ccccc12 returned 2A firefly -4% and StopGo RLuc 0%.
Screening COc1ccc(CNC(=O)c2ccc3c(c2)N=C(C)c2c(C)ccc(C)c2S3)cc1 returned 2A firefly 13% and StopGo RLuc 55%[activator].
`COP(=O)(OC)c1nc(-c2ccc(C)cc2)oc1N1CCOCC1` gave 2A firefly 3% and StopGo RLuc 55%[activator].
Cc1cc2n(n1)CC(CNCc1cccnc1N1CCCCC1)CN2 (stereo not drawn) was read as 2A firefly -13% and StopGo RLuc -15%.
For CCOC(=O)c1[nH]c(C)c(CCC(=O)Nc2c(C)cc(C)cc2C)c1C the results were 2A firefly 50%[activator] and StopGo RLuc 32%[activator].
For C#CC(C)(CC)NC(=O)c1ccccc1C(=O)O (stereo not drawn) the results were 2A firefly -1% and StopGo RLuc -4%.
`Cc1[nH]c2ccccc2c1C(=O)N1CCN(S(=O)(=O)c2cc(F)ccc2F)CC1` gave 2A firefly -3% and StopGo RLuc 26%.
COc1ccc(CCNc2ncnc3c2c(-c2ccccc2)cn3-c2cccc(Cl)c2)cc1OC was read as 2A firefly 5% and StopGo RLuc 6%.
`Cc1cc(C)c(CCNC(=O)NNc2nc(C)cc(C)n2)c(C)c1` gave 2A firefly -10% and StopGo RLuc 1%.
COC(=O)c1cc(S(=O)(=O)NCC2CCN(Cc3ccc(C)cc3)CC2)cn1C was read as 2A firefly -10% and StopGo RLuc -8%.
Screening O=Cc1ccc2c(c1)OCCOCCOCCO2 returned 2A firefly -1% and StopGo RLuc 1%.

Overlap with the part before: 2 entries, followed by the next part.
COC(=O)c1cc(S(=O)(=O)NCC2CCN(Cc3ccc(C)cc3)CC2)cn1C was read as 2A firefly -10% and StopGo RLuc -8%.
Screening O=Cc1ccc2c(c1)OCCOCCOCCO2 returned 2A firefly -1% and StopGo RLuc 1%.
`Cc1noc(/C=C\c2ccc(S(=O)(=O)N3CCN(C)CC3)cc2)c1NC(=O)C1CC1` gave 2A firefly 6% and StopGo RLuc 57%[activator].
Screening O=C(Nc1ccc2nn(-c3ccc(Cl)cc3)nc2c1)c1cc2ccccc2o1 returned 2A firefly 11% and StopGo RLuc 12%.
Screening COc1cccc(C(=O)NCC(c2ccc(N(C)C)cc2)N2CCCC2)c1OC (stereo not drawn) returned 2A firefly 9% and StopGo RLuc 0%.
`Cn1c(Cl)nc2c1c(=O)n(Cc1ccc(Cl)cc1)c(=O)n2C` gave 2A firefly 7% and StopGo RLuc 0%.
Screening CC(=O)N1CCN(CC(=O)Nc2cccc3ncccc23)CC1 returned 2A firefly 7% and StopGo RLuc -2%.
CCOC(=O)c1c(C)oc2nc(C)nc(NCc3ccc(Cl)cc3)c12 was read as 2A firefly -1% and StopGo RLuc 2%.
For Cc1nc2ccccc2c(C)c1CC(=O)NCCCc1[nH]nc(N)c1C#N the results were 2A firefly -1% and StopGo RLuc 6%.
Screening CN1CC[C@]23c4c5ccc(O)c4O[C@H]2[C@@H](O)CC[C@H]3[C@H]1C5 returned 2A firefly 6%[22.9 µM] and StopGo RLuc -13%[114 µM].
For N#CCN(C(=O)c1ccccc1)C1CC1 the results were 2A firefly 0% and StopGo RLuc 3%.
`Cc1ccccc1-c1ccnc2c(-c3ccc(F)cc3)c(C)nn12` gave 2A firefly -32% and StopGo RLuc inconclusive.
CC1(C)CS(=O)(=O)N(c2ccc(C(=O)Nc3ccc4c(c3)OCO4)cc2)C1=O was read as 2A firefly 88%[activator] and StopGo RLuc 3%.
For COc1ccccc1CNS(=O)(=O)c1cc(Br)cc2c1N(C(C)=O)C(C)C2 (stereo not drawn) the results were 2A firefly -6% and StopGo RLuc 278%[activator].
For COc1cccc(C(=O)/C(=C/c2ccccn2)c2nc3ccccc3o2)c1 the results were 2A firefly -105% and StopGo RLuc inconclusive.
COc1cc(C(=O)N2CC(=O)Nc3ccc(C)cc3C2c2ccc(F)cc2)cc(OC)c1OC (stereo not drawn) was read as 2A firefly -9% and StopGo RLuc -7%.
Cc1cc(C)c2c(n1)SCCN2C(=O)Nc1ccc(C(=O)Nc2ccc(C(C)C)cc2)cc1 was read as 2A firefly -9% and StopGo RLuc -8%.
For Cc1ccc(NC(=O)c2ncoc2-c2ccc(C)s2)c(C)c1 the results were 2A firefly 1% and StopGo RLuc 9%.
Screening COc1ccc(CNC(=O)C2CCN(c3nnc(C)c4c(C)n(-c5ccc(C)cc5)nc34)CC2)cc1 returned 2A firefly -12% and StopGo RLuc 4%.
`CC(=O)Nc1ccc(CNC(=O)c2cc(=O)[nH]c3ccccc23)cc1` gave 2A firefly -14% and StopGo RLuc -20%.
For Cc1ccc(S(=O)(=O)Nc2cc3c(cc2NCc2ccccc2)n(C)c(=O)n3C)cc1 the results were 2A firefly 150%[activator] and StopGo RLuc 748%[activator].
For Cc1cccc(CNC(=O)c2ccc(NC(=O)N3CC(C)Sc4ccccc43)cc2)c1 (stereo not drawn) the results were 2A firefly -17% and StopGo RLuc 2%.

Part of the list above in order of formula weight, rising.
`Cc1ccccc1-c1ccnc2c(-c3ccc(F)cc3)c(C)nn12` gave 2A firefly -32% and StopGo RLuc inconclusive.
`CC(=O)Nc1ccc(CNC(=O)c2cc(=O)[nH]c3ccccc23)cc1` gave 2A firefly -14% and StopGo RLuc -20%.
`Cn1c(Cl)nc2c1c(=O)n(Cc1ccc(Cl)cc1)c(=O)n2C` gave 2A firefly 7% and StopGo RLuc 0%.
For Cc1nc2ccccc2c(C)c1CC(=O)NCCCc1[nH]nc(N)c1C#N the results were 2A firefly -1% and StopGo RLuc 6%.
Screening O=C(Nc1ccc2nn(-c3ccc(Cl)cc3)nc2c1)c1cc2ccccc2o1 returned 2A firefly 11% and StopGo RLuc 12%.
Screening COc1cccc(C(=O)NCC(c2ccc(N(C)C)cc2)N2CCCC2)c1OC (stereo not drawn) returned 2A firefly 9% and StopGo RLuc 0%.
CC1(C)CS(=O)(=O)N(c2ccc(C(=O)Nc3ccc4c(c3)OCO4)cc2)C1=O was read as 2A firefly 88%[activator] and StopGo RLuc 3%.
`Cc1noc(/C=C\c2ccc(S(=O)(=O)N3CCN(C)CC3)cc2)c1NC(=O)C1CC1` gave 2A firefly 6% and StopGo RLuc 57%[activator].
For Cc1cccc(CNC(=O)c2ccc(NC(=O)N3CC(C)Sc4ccccc43)cc2)c1 (stereo not drawn) the results were 2A firefly -17% and StopGo RLuc 2%.
For Cc1ccc(S(=O)(=O)Nc2cc3c(cc2NCc2ccccc2)n(C)c(=O)n3C)cc1 the results were 2A firefly 150%[activator] and StopGo RLuc 748%[activator].
For COc1ccccc1CNS(=O)(=O)c1cc(Br)cc2c1N(C(C)=O)C(C)C2 (stereo not drawn) the results were 2A firefly -6% and StopGo RLuc 278%[activator].

New compounds follow
COc1ccccc1NC(=O)C1=C(C)Nc2c(C(=O)Nc3ccc(F)cc3)cnn2C1c1ccc(Cl)cc1 (stereo not drawn) was read as 2A firefly -7% and StopGo RLuc 2%.
For Cc1c(CC(C)C)nc(C#N)c(N)c1-c1ccccc1 the results were 2A firefly 39%[activator] and StopGo RLuc 38%[activator].
CCN(CC)c1nc2ccccc2nc1C(=O)Nc1ccc(F)c(Cl)c1 was read as 2A firefly 9% and StopGo RLuc 13%.
`CCOC(=O)NC(CNC(=O)NCc1ccc(C(C)O)cc1)CC(C)C` (stereo not drawn) gave 2A firefly 24% and StopGo RLuc 13%.
`OCCOc1ccccc1` gave 2A firefly -13%[11.5 µM] and StopGo RLuc -8%.
Screening COc1ccc(Cl)cc1NC(=O)c1cc2nc(-c3ccc(C)cc3)cc(C(F)(F)F)n2n1 returned 2A firefly -17% and StopGo RLuc -20%.
For CCOC(=O)CCN(c1ccccc1)S(=O)(=O)c1ccc2[nH]c(=O)ccc2c1 the results were 2A firefly -2% and StopGo RLuc -4%.
`CC(C)(C)OC(=O)Nc1cccc(C(=O)NCC(c2cccs2)N2CCOCC2)c1` (stereo not drawn) gave 2A firefly inconclusive and StopGo RLuc inconclusive.
COc1ccc(CNC(=O)CN2C(=O)CN(C(=O)NCc3ccccc3)c3ccccc32)cc1 was read as 2A firefly 1% and StopGo RLuc 0%.
`CCc1ccc(CNC(=O)Cc2c(C(=O)O)c(C)cn2C)cc1` gave 2A firefly -5% and StopGo RLuc -7%.
For COc1ccc(C)cc1NC(=O)N1CCN(c2nnc(C)c3c(C)n(-c4ccccc4)nc23)CC1 the results were 2A firefly -7% and StopGo RLuc 0%.
Cc1cccc(N2CCN(C(=O)Cn3nc(C)n4cccc4c3=O)CC2C)c1 (stereo not drawn) was read as 2A firefly -31% and StopGo RLuc -17%.
COc1ccc(S(=O)(=O)NC2CCN(Cc3ccccc3)CC2)cc1NC(C)=O was read as 2A firefly -13% and StopGo RLuc 4%.
O=C(c1ccc2c(c1)OCO2)N(Cc1ccco1)C1(C(=O)NC2CCCC2)CCCCC1 was read as 2A firefly -16% and StopGo RLuc 25%.
For CCc1ccc2oc(=O)cc(-c3oc4ccccc4c3NC(C)=O)c2c1 the results were 2A firefly -6% and StopGo RLuc -1%.
`COc1ccc(N2CCN(C(=O)c3ccc4c(c3)CCN4S(=O)(=O)c3ccccc3)CC2)cc1` gave 2A firefly -27% and StopGo RLuc 1%.
`CCOc1cc(-c2ccc(OC(=O)c3ccc(C)cc3)c(OC)c2)cc(=O)c2c(C)oc(C)c12` gave 2A firefly 55%[activator] and StopGo RLuc 13%.
